Screening results as filed in PubChem BioAssay.
SARS PLP yeast – qHTS of Yeast-based Assay for SARS-CoV PLP; S. cerevisiae expressing SARS-CoV PLpro, growth rescue; control for the full effect not named in the record; Potency, µM (top dose mostly 32.9 µM), inactives show at the top dose activity, positive = growth rescue; 0.19% of 330,000 active; AID 485353, 2010; note: 0% is about no effect; nearly all actives have a fitted effect of over 55% in size; growth read by luminescence after 48 h
RE007 growth inh – qHTS Assay for Inhibitors of the HIV-1 protein Vpr; S. pombe RE007 Vpr strain, BacTiter-Glo ATP luminescence, 24 h; control for the full effect not named in the record; Potency, µM (highest dose often 92.2 µM), inactives show top-dose activity change, negative = less growth; 0.21% of 360,000 active; AID 651644, 2012; active = well fitted falling curve with a large enough effect; inconclusive = small, poorly fitted or top-dose-only effect; inactive = no such curve, though single readings can be large or run the other way;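 note: % is set by controls: 0 for no effect and ±100 for the full control effect; nearly all actives have a fitted effect of over 50% in size; the assay follows cell death caused by Vpr and the record does not say whether a fall means rescue or toxicity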
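Fission yeast RE007 carrying one integrated HIV-1 vpr copy, seeded at OD 0.01 in PMG+AL medium with 23 nL pinned compound. Grown 24 h at 30 degrees; viability read by BacTiter-Glo luminescence after 5 min.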
Cruzain noTriton – qHTS Assay for Promiscuous and Specific Inhibitors of Cruzain (without detergent) | purified cruzain, Z-FR-AMC fluorescence, no detergent | Potency, µM, without a hit: max response, negative = inhibition, usual class: inhibitors | 2.3% of 200,000 active; active = well fitted curve in the direction sought with a large enough effect; inconclusive = small, poorly fitted or top-dose-only effect, or another doubt; inactive = no such curve, though single readings can be large; an effect the other way counts as inactive or inconclusive;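 note: plate controls were enzyme without inhibitor for no effect and buffer without enzyme for full effect; nearly all actives have a fitted effect of over 40% in size; top concentration of the series not given in the record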
Target sequence (P25779 123-467 limits assumed): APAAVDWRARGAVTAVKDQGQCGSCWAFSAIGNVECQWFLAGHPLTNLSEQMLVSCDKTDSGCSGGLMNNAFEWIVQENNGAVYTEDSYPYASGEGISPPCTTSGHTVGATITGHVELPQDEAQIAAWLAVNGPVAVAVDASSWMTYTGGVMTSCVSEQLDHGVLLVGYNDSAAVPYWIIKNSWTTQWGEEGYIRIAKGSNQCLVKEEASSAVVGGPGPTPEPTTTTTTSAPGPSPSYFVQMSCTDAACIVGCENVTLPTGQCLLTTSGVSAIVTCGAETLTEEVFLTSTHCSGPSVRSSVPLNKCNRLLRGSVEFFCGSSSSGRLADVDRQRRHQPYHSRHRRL
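Purified cruzain at 1.5 nM, pre-incubated 15 min with compound at room temperature in 100 mM sodium acetate pH 5.5, 5 mM DTT, 0.00005% Triton X-100. Reaction started with 2 uM Z-FR-AMC; AMC fluorescence increase over 60 s gives rate.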
Cruzain inh Det – qHTS Assay for Promiscuous and Specific Inhibitors of Cruzain (with detergent); AID 1478, 2009; purified cruzain, Z-FR-AMC fluorescence, 0.01% Triton; Cruzipain (Trypanosoma cruzi), P25779; Potency, µM, without a hit: max response, negative = inhibition, hits mostly inhibitors; 0.43% of 200,000 active; active = well fitted curve in the direction sought with a large enough effect; inconclusive = small, poorly fitted or top-dose-only effect, or another doubt; inactive = no such curve, though single readings can be large; an effect the other way counts as inactive or inconclusive;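 note: plate controls were neutral wells for no effect and buffer without enzyme for full effect; nearly all actives have a fitted effect of over 40% in size; top concentration of the series not given in the record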
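Detergent-containing run (0.01% Triton X-100) in acetate buffer pH 5.5 with 5 mM DTT: enzyme at 1.5 nM final, 15 min compound preincubation at room temperature, then 2 uM Z-FR-AMC substrate. Activity taken as 60 s fluorescence increase at 360/450 nm.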
StopGo reporter – High Throughput Screening for Foot and Mouth Disease Virus Antivirals; Potency, µM (doses to about 57.9 µM), for inactives: at the top dose signal change, negative = less light; AID 1159524, 2015; 1.2% of 410,000 active; human cells with a luciferase reporter of 2A StopGo recoding; control for the full effect not named in the record; active = well fitted falling curve with a large enough effect; inconclusive = small, poorly fitted or top-dose-only effect; inactive = no such curve, though single readings can be large or run the other way; tested in HEK293T cells; note: % is set by controls: 0 for no effect and ±100 for the full control effect; nearly all actives have a fitted effect of over 45% in size; luciferase light after 4 h
NS1 inh – qHTS Assay for Inhibitors of Influenza NS1 Protein Function | S. cerevisiae slowed by influenza A NS1, growth recovery by OD600 | AID 2326, 2010 | Potency, µM (titrated, usually from 46.1 µM), for the others: at the highest dose activity, positive = more growth | 0.4% of 270,000 active; note: actives are rising curves; nearly all actives have a fitted effect of over 50% in size
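OD600 was taken as the measure of yeast growth restored by compound in an NS1-expressing S. cerevisiae strain. Cells had been washed out of glucose medium and diluted 1:100 into galactose -URA medium, pH 6.0.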
Lassa entry inh – qHTS for Inhibitors of binding or entry into cells for Lassa Virus | Potency, µM (top dose mostly 37.9 µM), for the others: at the highest dose activity change, negative = inhibition, hits mostly inhibitors | Lassa virus pseudotype entry inhibition, cell reporter; control for the full effect not named in the record | 1.2% of 300,000 active; active means well fitted inhibition curve with a large enough effect; inconclusive means small, poorly fitted or top-dose-only effect, or effect the other way; inactive means flat fitted curve, though single readings scatter; tested in HEK293 cells; note: % is set by controls: 0 for no effect and ±100 for the full control effect; nearly all actives have a fitted effect of over 50% in size; luciferase read-out
MARV entry inh – qHTS for inhibitors of binding or entry into cells for Marburg Virus | Marburg virus pseudotyped entry inhibition, cell reporter; control for the full effect not named in the record; about a third of the inactives were read at about 46 µM | Potency, µM (top dose mostly 37.8 µM), without a hit: at the highest dose activity change, negative = inhibition, most hits filed as inhibitors | 1.8% of 300,000 active; active = well fitted inhibition curve with a large enough effect; inconclusive = small, poorly fitted or top-dose-only effect, or effect the other way; inactive = flat fitted curve, though single readings scatter; tested in HEK293 cells; about a fifth of its hits are not listed in these tables; note: % is set by controls: 0 for no effect and ±100 for the full control effect; luciferase read-out
An asterisk follows results filed as active; ? = inconclusive; · = no result given; [ ] = another dose, or the depositor's remark. Unless noted, calls come from the whole dose curve; as a rule, active means well fitted rising curve with a large enough effect; inconclusive means small, poorly fitted or top-dose-only effect; inactive means no such curve, though single readings can be large or run the other way. Potency is the fitted concentration of half-maximal effect.

SMILES	SARS PLP yeast	RE007 growth inh	Cruzain noTriton	Cruzain inh Det	StopGo reporter	NS1 inh	Lassa entry inh	MARV entry inh
O=C(CSc1nnnn1-c1ccc(C(=O)O)cc1)NC1CCCCC1	1%	11%	·	·	8%	-3%	3%[46.1 µM]	-1%[46.1 µM]
O=S(=O)(Nc1ccc(S(=O)(=O)Nc2ncccn2)cc1)c1ccc(Cl)cc1	0%	4%	·	·	-9%	3%	-17%[46.1 µM]	-10%[46.1 µM]
CCOC(=O)N1C(=O)C2(CCCCC2)N(c2ccccc2Cl)C1=S	-80%	4%	-3%	-6.1%	?	-51%	?	-19%
Cc1ccc(CNC(=O)C2CCN(S(=O)(=O)c3ccc(Br)s3)CC2)cc1	0%	-1%	·	·	13%	2%	5%	-1%[46.1 µM]
CCCCSc1nc2ccccc2[nH]1	-3%	?	·	·	23%	-8%	?	2%
COc1ccc(C2Nc3ccccc3-c3nnc(SC)nc3O2)cc1C (stereo unspecified)	·	·	-2%	-8.3%	-15%	·	18%[46.1 µM]	-7%[46.1 µM]
CSC1=N/C(=C\c2ccc(C)s2)C(=O)S1	6%	-9%	-6%	-6.1%	-9%	-14%	-17%	0%
O=C(NCCN1CCCCC1)c1cc2ccccc2[nH]1	1%	-3%	3%	3.8%	5%	2%	-13%	-19%
CC1CCCCC1NC(=O)CN(C)S(=O)(=O)c1ccc2c(c1)CCC(=O)N2 (stereo unspecified)	-1%	-1%	·	·	-16%	0%	-10%[46.1 µM]	29%[46.1 µM]
S=C(Nc1ccccc1)NC1CCN(Cc2ccccc2)CC1	0%	-10%	·	·	-11%	3%	·	?
CCOC(=O)c1ccc(N2CCN(c3ccccc3F)CC2)c(NC(=O)Nc2ccc(Cl)c(Cl)c2)c1	·	·	2%	0.1%	25µM*	·	?	·
COc1ccc(C(=O)CSc2n[nH]c(-c3ccco3)n2)cc1	1%	1%	2%	-0.6%	-16%	-99%	7%	14%
CCN(CC)C(=S)SCC(=O)Nc1ncc2c(n1)CC(C)(C)CC2=O	0%	-2%	·	·	1%	2%	-8%	-5%[14.2 µM]
Cc1ccc2c(c1)/C(=N/OC(=O)c1ccc(F)cc1)CCS2	-1%	-6%	-5%	3.5%	20%	0%	-3%	7%
Cc1ccc2nsnc2c1S(=O)(=O)NCCc1c(C)[nH]c2ccc(F)cc12	-6%	-13%	-8%	-4.8%	2%	2%	?	-16%
CCOP(=O)(OCC)C(NC(=O)NS(=O)(=O)c1ccc(C)cc1)c1ccccc1 (stereo unspecified)	1%	9%	·	·	-9%	7%	-2%	9%[46.1 µM]
COc1ccc(CCNc2nc3ccc(C)cc3n3cnnc23)cc1OC	-2%	-7%	-8%	-0.4%	?	-4%	·	3%[46.1 µM]
CCCCN(CC)CCCNC(=O)Cn1nc(Cc2ccncc2)c2ccccc2c1=O	0%	-9%	-1%	3.0%	5%	1%	13%[14.3 µM]	-1%
C/C(=N\NC(=O)c1nnn(-c2nonc2N)c1-c1cccs1)c1ccc(O)cc1	18%	0%	·	·	7%	12%	-35%[46.1 µM]	8%[46.1 µM]
NS(=O)(=O)c1ccc(NC(=S)NC(=O)c2ccc(Br)o2)cc1	1%	-4%	·	·	26%	2%	?	-1%[46.1 µM]
CC(=O)c1cccc(NC(=O)NNC(=O)c2ccc(-c3ccccc3)cc2)c1	10%	2%	·	·	-24%	13%	3%	-12%
COc1ccc(-c2nnc(SCC(=O)NCc3cccs3)n2C(C)C)cc1	4%	13%	-1%	-2.0%	-28%	-5%	-6%	-5%[46.1 µM]
CCOc1cc(/C=N\NC(=O)C2C(=O)NCC2c2ccccc2)ccc1OC (stereo unspecified)	-8%	2%	-16%	-2.7%	-16%	-16%	-2%	2%
Cc1nc(Nc2nc3ccccc3o2)nc2c1CCC2	2%	-4%	5%	1.1%	?	-15%	?	7.3µM*
CSc1nc(SCCN(C)C)c2c3c(sc2n1)COC(C)(C)C3	1%	-1%	·	·	-6%	-1%	?	?
CCOC(=O)c1ccc(NC(=O)Cn2nnc(-c3ccc(C)cc3)n2)cc1	2%	0%	?	-1.3%	26%	4%	25%	21%
O=C(c1ccccc1)N1N=C(c2ccccc2O)CC1c1ccccc1 (stereo unspecified)	2%	-1%	·	·	-6%	-1%	24%	-7%
Cc1oc(-c2ccc(Cl)cc2)nc1CN1CCCC(C(=O)NCCCN2CCOCC2)C1 (stereo unspecified)	-9%	1%	10%	-8.4%	0%	-3%	?	?
O=C(C1CC(=O)N(c2ccc(Cl)cc2)C1)N1CCCCCC1 (stereo unspecified)	0%	5%	·	·	6%	0%	17%	3%[46.1 µM]
COc1cc(OC)cc(-c2nnc(NC(=O)CCS(=O)(=O)c3ccc(C)cc3)o2)c1	-8%	6%	·	·	-15%	·	?	-12%[46.1 µM]
CCOC(=O)c1cc(S(=O)(=O)N2CCN(c3ccc(OC)cc3)CC2)[nH]n1	·	·	18%	-0.5%	32%[activator]	·	24%[46.1 µM]	·
CCN(CC)Cc1c(C(=O)N/N=C/c2ccccn2)nnn1-c1nonc1N	1%	-7%	·	·	1%	-1%	2%	0%[46.1 µM]
CCCc1c(C(=O)N/N=C(/C)c2ccncc2)nnn1-c1nonc1N	1%	9%	·	·	-3%	1%	-2%	7%
Cc1ccc(OCC(=O)Nc2ccc(N(C)C)cc2)cc1	-2%	-10%	-9%	-2.4%	3%	-15%	13%	19%
CCOC(=O)Cn1cnc2c(nnn2-c2ccccc2)c1=O	-4%	4%	·	·	8%	-10%	·	·
COC(=O)c1[nH]c2cccc(C)c2c1NC(=O)CN1CCN(C(=O)c2ccco2)CC1	-1%	28%	-4%	4.5%	0%	8%	8%	-7%
Cc1cc(C)cc(OCCn2ccnc2)c1	-7%	-12%	·	·	-10%	-2%	·	·
O=C(Oc1ccc(-c2nnco2)cc1)c1ccco1	4%	-1%	·	·	-12%	·	7%	?
Cc1cc2c(cc1S(=O)(=O)N(CCN(C)C)Cc1ccccc1)OCC(=O)N2	·	·	-3%	3.9%	5%	·	0%[46.1 µM]	·
O=C(Nc1ccc(N2CCOCC2)nc1)c1ccc(C(F)(F)F)cc1	-1%	-16%	·	·	8.9µM*	·	?	9%[46.1 µM]
COc1ccc(-n2c(SCC(=O)NNC(=O)c3ccc(C)cc3)nnc2-c2ccncc2)cc1	-10%	7%	0%	-2.5%	-10%	-3%	-3%	?
COC(=O)c1ccc(C23CC4(C2)[C@H](CN(C)[C@@H]4c2ccccc2)C3c2ccc(C(F)(F)F)cc2)cc1 (stereo partly specified)	-2%	3%	1%	-2.1%	-20%	12%	·	·
COc1ccc(/C=C/C(=O)NCCc2ccc(S(N)(=O)=O)cc2)cc1	11%	8%	-3%	-1.5%	-20%	25%	9%	-7%
CCOC(=O)N1CCN(C(=O)CC(C)S(=O)(=O)c2cc3c(cc2C)NC(=O)CO3)CC1 (stereo unspecified)	-5%	4%	·	·	-7%	13%	24%[46.1 µM]	6%[46.1 µM]
Nc1nc(NCC2CCCO2)nc(NCC2CCCO2)c1[N+](=O)[O-] (stereo unspecified)	?	-19%	3%	-8.2%	-8%	3%	-9%	0%
CCC(=O)Nc1sccc1C(=O)OC	?	-11%	2%	2.1%	5%	8%	4%	-9%
N#Cc1c(C(F)(F)F)cc(-c2ccccc2)nc1SCC(=O)N1CCOCC1	3%	2%[3.69 µM]	20%	-0.2%	4%	9%	8%	?
Brc1ccc(CSc2nnc(-c3cnccn3)n2Cc2ccco2)cc1	-17%	2%	11%	-4.8%	-19%	-31%	-25%	-27%
Cc1cccc(-c2nn3c(=O)cc(CN4CCN(S(=O)(=O)c5ccc(Cl)cc5)CC4)nc3s2)c1	·	·	-3%	0.2%	-24%	·	4%[46.1 µM]	·
CCc1ccc(NC(=O)CN(c2cccc(C)c2)S(C)(=O)=O)cc1	7%	10%	13%	0.4%	-10%	-3%	-2%	17%
Cc1noc(NS(=O)(=O)c2ccc(NS(=O)(=O)c3ccc(Cl)cc3)cc2)c1C	-3%	-14%	·	·	-6%	·	?	0%
CN1CCC2(CCN3CCc4c(oc5ccccc45)C3C2)N(C)C1=O (stereo unspecified)	·	·	3%	-2.6%	·	-7%	-12%	?
CCN(C(=O)CSc1nc(-c2ccccc2)c(-c2ccccc2)[nH]1)C1CCS(=O)(=O)C1 (stereo unspecified)	16%	5%	28%	2.9%	-16%	11%	-6%	-14%
Cc1cccc(C)c1NC(=O)CN(C)CC(=O)Nc1ccc(F)c(Cl)c1	1%	0%	·	·	?	·	-15%	-24%[46.1 µM]
Cn1cccc1-c1nc2ccccc2n1C	-2%	2%	·	·	23%	·	25%	-2%
CC(Oc1ccc(-c2ccccc2)cc1)C(=O)N1CCOCC1 (stereo unspecified)	-2%	-5%	11%	5.2%	-24%	-4%	-7%	47%
CCOC(=O)c1[nH]c(C)c(C(=O)NC(C)CC)c1C (stereo unspecified)	16%	-1%	-4%	-1.6%	-12%	-4%	·	·
CN1CCN(C(=O)CC23CC4CC(CC(C4)C2)C3)CC1	-4%	-10%	-7%	3.3%	10%	-4%	23%	31%
Cc1cccc(Cn2cnc3c(nnn3Cc3ccc(F)cc3)c2=O)c1	-2%	15%	9%	-5.2%	-15%	6%	-17%	-11%
COC(=O)c1cc(NC(=O)c2ccc([N+](=O)[O-])cc2)c(=O)oc1C	-1%	3%	·	·	-6%	-1%	19%[46.1 µM]	18%[46.1 µM]
COC(=O)[C@H](C)NC(=O)Nc1ccc(OC)cc1OC	4%	7%	4%	1.4%	-2%	?	?	10%
